Screening results deposited in PubChem BioAssay by Broad Institute.
RanGTP-Impb inh: inhibitors of RanGTP-importin-beta interaction, primary screen, biochemical, FRET, CFP-Ran, YFP-importin-beta, homogeneous. Ran GTPase (GTP-bound) - importin-beta complex. hit rate 1.1% among 300,000. inhibition, % (concentration not given with the values). cell-free CFP-Ran/YFP-importin-beta FRET ratio;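 active = most replicates above 15%; inconclusive = exactly half above 15%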;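 also: 0% = DMSO wells and 100% = Ran loaded with GDP instead of GTP; wells of about 40 µL received 100 nL stock; the first replicate is given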
Beta cell apopt: inhibitors of cytokine-induced beta cell apoptosis, primary screen, luminescence; INS-1E cytokine-induced death, ATP luminescence, 48 h; percent of positive-control rescue, neutral wells zero; protection from apoptosis, % (concentration not given with the values); hit rate 0.8% among 300,000;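 active = all replicates at 75% or more, or half of them and the mean; inconclusive = half reach 75% but not the mean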;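 also: 0% = cytokine-treated negative control wells and 100% = positive control rescue; higher means more ATP so stronger rescue from cytokine killing; wells of about 40 µL received 100 nL stock; the first replicate is given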
AF4-AF9 inh: inhibitors of AF4 peptide binding to AF9, primary screen, biochemical, AlphaScreen, biotin-AF4 peptide, FLAG-AF9, single point. inhibition, % at 10 µM. AID 651704, 2012. hit rate 0.47% among 350,000;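 active = every replicate reaching a set inhibition limit, whatever the replicate mean, cut at about 25% in these data; inconclusive = mean inhibition reaches that limit but some replicates miss it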;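 also: 0% = plate neutral control median and 100% = total signal loss; the record names both 10 and 1 µM as test concentration; the first replicate is given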
Target sequence (P42568 whole entry, looked up): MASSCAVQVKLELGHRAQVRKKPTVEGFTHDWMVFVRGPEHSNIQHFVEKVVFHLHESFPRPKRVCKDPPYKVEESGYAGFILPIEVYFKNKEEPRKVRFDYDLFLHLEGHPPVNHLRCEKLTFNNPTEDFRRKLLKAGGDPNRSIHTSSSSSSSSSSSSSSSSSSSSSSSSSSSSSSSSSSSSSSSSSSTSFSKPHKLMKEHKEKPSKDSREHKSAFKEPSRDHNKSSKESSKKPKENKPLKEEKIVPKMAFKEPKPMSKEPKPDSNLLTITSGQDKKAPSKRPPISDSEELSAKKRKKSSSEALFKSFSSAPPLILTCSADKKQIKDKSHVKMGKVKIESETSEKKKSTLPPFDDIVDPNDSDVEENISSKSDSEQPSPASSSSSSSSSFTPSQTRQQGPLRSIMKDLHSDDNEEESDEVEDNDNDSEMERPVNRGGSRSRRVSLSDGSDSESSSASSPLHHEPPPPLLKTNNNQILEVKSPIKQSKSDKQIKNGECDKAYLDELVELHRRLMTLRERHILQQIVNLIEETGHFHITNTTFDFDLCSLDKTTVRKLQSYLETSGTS
rRNA inh HTS: reduced GFP signal of wild-type E. coli, primary screen, bacterial rRNA inhibitor project, GFP/RFP fluorescence, OD600, single point; E. coli WT GFP vs humanized-ribosome RFP mutants, 24 h; active compounds read low; DMSO median 0, no signal -100; GFP signal change (wild-type ribosome), % (test concentration not listed); hit rate 1.6% among 350,000;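 active = significant combined selectivity score with lowered wild-type GFP, culture density cut under 30%, mutant RFP and density less affected; inactive = any of these conditions unmet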; also: one replicate is shown; some compounds called inactive have numbers as strong as hits
T cruzi repl: inhibitors of intracellular T. cruzi growth, primary screen, luminescence, NIH3T3 host cells. T. cruzi beta-gal in NIH3T3, 90 h. inhibition, % (test concentration not listed). hit rate 1.4% among 300,000. AID 1885, 2009;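 active = mean inhibition across valid replicates above about 55%, limit read from the data; inconclusive = mean below that limit but half or more replicates reach it; inactive = mean below it, under half of replicates reach it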;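 also: signal also drops with host cell toxicity which is not excluded here; 0% = plate median of DMSO wells and 100% = zero luminescence signal; higher percent means less beta-gal luminescence so fewer parasites; stock transfer was 50 nL into about 50 µL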
Calb FLC: C. albicans growth inhibition with fluconazole, primary screen, CaCi-2 strain, Alamar Blue fluorescence; C. albicans CaCi-2 (fluconazole-resistant clinical isolate) + fluconazole, 48 h; growth inhibition, % (concentration not given with the values); hit rate 0.57% among 300,000; AID 1979, 2009;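 active = most replicates above 75%; inconclusive = exactly half above 75%; inactive = most below 75%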;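 also: all wells also contain fluconazole at 8 µg/ml as a sub-toxic cotreatment; 0% = median of DMSO wells and 100% = median of geldanamycin control wells; wells of about 8 µL received 7.5 nL stock; the first replicate is given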
ALR inh: inhibitors of human ALR sulfhydryl oxidase, primary screen, biochemical, H2O2 detection, HRP-luminol luminescence, single point; FAD-linked sulfhydryl oxidase ALR (Homo sapiens), P55789; purified ALR, DTT oxidation; inhibition, % (no concentration beside the values); hit rate 3.8% among 290,000;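 active = mean and each replicate at 75% or more; inconclusive = only one of the two met; inactive = neither met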;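 also: stock transfer was 7.5 nL into about 7.5 µL; 0% = neutral wells and 100% = wells with inactivated enzyme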
Target sequence (P55789 whole entry, looked up): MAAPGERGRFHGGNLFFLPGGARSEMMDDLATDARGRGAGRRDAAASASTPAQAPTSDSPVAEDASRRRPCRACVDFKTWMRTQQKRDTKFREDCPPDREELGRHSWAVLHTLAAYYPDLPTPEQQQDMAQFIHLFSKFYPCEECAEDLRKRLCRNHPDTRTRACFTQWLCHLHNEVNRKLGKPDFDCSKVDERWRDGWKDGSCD
FGF22 binding: binders of human FGF22 protein, primary screen, FGF22 synaptogenesis inhibitor project, biophysical, thermal shift, single point | Fibroblast growth factor 22 (Homo sapiens), Q9HCT0 | recombinant FGF22 thermal shift, SYPRO orange fluorescence; percent of sucrose octasulfate shift, DMSO zero | calls only at 9.99 µM | hit rate 1.5% among 340,000 | AID 651658, 2012;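 active = melting point raised past a set limit in the mean and every replicate; inconclusive = no clear call; three in four hits are not shown here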
Target sequence (Q9HCT0 whole entry, looked up): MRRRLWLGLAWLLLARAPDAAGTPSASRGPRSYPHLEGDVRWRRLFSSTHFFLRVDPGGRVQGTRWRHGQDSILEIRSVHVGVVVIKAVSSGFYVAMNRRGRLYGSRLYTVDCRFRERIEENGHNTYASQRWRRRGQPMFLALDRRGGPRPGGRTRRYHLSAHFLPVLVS
rRNA inh HTS OD600: further read-out of rRNA inh HTS, marked with its call; OD600 change, %; measured here: OD600 growth;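 optical density of the mix in the first replicate; 0 = DMSO median and -100 = no signal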
rRNA inh HTS RFP: second read-out of rRNA inh HTS, no call of its own (marks repeat the call); RFP signal change, %; measured here: RFP humanized mutant strains;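 first replicate; 0 = DMSO median and -100 = no signal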
* marks the source's active call; other numbers are inactive results; i = inactive; ? = inconclusive; nt = no result given. This is a subset, so the mix of outcomes need not match the whole.

SMILES	RanGTP-Impb inh	Beta cell apopt	AF4-AF9 inh	rRNA inh HTS	rRNA inh HTS OD600	rRNA inh HTS RFP	T cruzi repl	Calb FLC	ALR inh	FGF22 binding
CCOC(=O)c1nnn(-c2nonc2N)c1-c1ccccc1	3.8	-1.3	nt	nt	nt	nt	6.6	13.2	-8.1	nt
Cc1noc(C)c1CSc1cc(C)c2ccccc2n1	-2.0	1.7	nt	-15.7	-20.9	2.9	-3.6	-2.4	2.3	nt
O=C(O)CCCCn1c(SCC(=O)Nc2ccccc2C(F)(F)F)nc2ccsc2c1=O	1.1	4.4	-1.0	5.0	-3.6	-4.7	8.2	1.7	nt	i
C=CCn1c(=O)c(C(=O)NCCc2ccccc2)c(O)c2ccccc21	7.1	8.7	nt	nt	nt	nt	12.3	-6.4	-3.0	nt
CCOC(=O)C1=C(N)OC2=C(C(=O)CCC2)C1c1cccnc1 (stereo not drawn)	2.8	-1.6	nt	nt	nt	nt	-6.1	-5.7	-0.4	nt
CCNC(=O)/C(=C\c1ccccc1)NC(=O)/C=C/c1ccccc1	-1.8	-0.1	nt	nt	nt	nt	-16.9	-5.2	0.7	nt
CN(C)CCNc1oc(COc2ccc(Cl)cc2Cl)nc1C#N	7.4	2.6	nt	nt	nt	nt	10.8	-4.7	0.3	nt
COc1ccc(C2C(C(=O)c3ccco3)=C(O)C(=O)N2CC2CCCO2)cc1 (stereo not drawn)	2.4	-5.0	-5.7	nt	nt	nt	-2.2	6.2	1.3	i
CCc1ccc(NC(=O)COc2ccc(/C=C(/C#N)c3nc4ccccc4[nH]3)cc2OC)cc1	-34.8	nt	-6.3	6.2	5.6	10.5	5.3	10.2	-8.5	i
Cc1[nH]c(=O)c(C#N)c(C)c1CCC(=O)Nc1cc(S(C)(=O)=O)ccc1Cl	-0.1	1.3	2.4	9.7	8.4	8.3	-7.4	1.7	-4.2	i
Cc1cccc(NS(=O)(=O)c2ccc3c(c2)Cc2cc(S(=O)(=O)Nc4cccc(C)c4C)ccc2-3)c1C	nt	12.3	13.7	9.2	4.2	-3.3	nt	nt	-2.1	i
CCOC(=O)c1c(NC(=O)CSc2nncs2)sc(C)c1-c1ccccc1	-0.2	-9.6	2.9	-25.2	-13.1	-1.1	18.1	-5.9	2.7	i
CC(=O)Nc1ccc(Oc2cc(C#N)c(C#N)cc2N2CCOCC2)cc1	0.2	0.1	nt	nt	nt	nt	-11.6	-3.3	0.0	nt
CCCN(c1ccc(C(C)C)cc1)S(=O)(=O)c1c(C)noc1C	-0.3	-7.6	nt	nt	nt	nt	11.0	-2.7	10.9	nt
CCCCc1ccc(N=N/C(C(=O)Nc2ccc(NC(C)=O)cc2OC)=C(/C)O)cc1	-1.1	4.4	1.9	4.1	-4.9	-8.9	35.4	3.7	-10.8	i
CCN(CC)S(=O)(=O)c1cc(NC(=O)CSc2nnc(-c3cccs3)o2)ccc1C	3.8	6.5	nt	nt	nt	nt	2.5	11.3	-7.2	nt
O=C(C[C@@H]1C/C=C/CCCC(=O)O[C@H](c2ccccc2)CNC1=O)N[C@H](CO)Cc1ccccc1	nt	-1.1	4.9	3.5	-6.4	9.2	nt	nt	-2.1	i
O=S(=O)(c1ccc(Cl)cc1)N1CCCC1c1nc(-c2ccc(Cl)cc2)no1 (stereo not drawn)	2.7	-1.8	nt	nt	nt	nt	12.9	35.4	-3.5	nt
O=C(CCCc1nc(-c2ccccc2)no1)Nc1cccnc1	-0.9	5.9	nt	nt	nt	nt	0.4	18.3	-4.1	nt
COc1ccc(-n2c(Cc3cccn3C)nnc2SCC(=O)N2CCC(C)CC2)cc1	-1.0	1.0	3.7	4.9	12.0	-1.6	17.1	5.8	24.6	i
CCc1cc(=O)[nH]c(SCc2cccnc2)n1	2.9	-0.2	nt	nt	nt	nt	-12.2	4.0	98.3*	nt
COc1ccc(OC)c(NS(=O)(=O)c2ccc3c(c2)CCC(=O)N3)c1	-2.7	-1.3	nt	nt	nt	nt	-0.2	21.5	-70.0	nt
Cc1ccc(OCCN2CCN(CC(O)Cn3c4ccccc4c4ccccc43)CC2)cc1 (stereo not drawn)	-3.9	-2.8	nt	nt	nt	nt	39.6	-5.2	14.0	nt
CCc1ccc(-c2cc(C(F)(F)F)n3nc(C(=O)Nc4cnn(Cc5ccccc5C)c4)cc3n2)s1	11.7	-0.7	nt	nt	nt	nt	6.2	-1.4	-3.7	nt
CC(=O)Nc1ccc(NC(=O)c2c(-c3ccccc3)noc2C)cn1	2.1	9.9	-0.4	4.3	8.4	3.6	-9.8	4.8	-16.1	i
Going on with the list:
SMILES	RanGTP-Impb inh	Beta cell apopt	AF4-AF9 inh	rRNA inh HTS	rRNA inh HTS OD600	rRNA inh HTS RFP	T cruzi repl	Calb FLC	ALR inh	FGF22 binding
COc1ccc(OCCNC(=O)c2ccccc2OCC(=O)Nc2ccc(NC(C)=O)cc2)cc1	0.7	0.0	nt	nt	nt	nt	-23.9	1.2	-2.4	nt
CCCn1c(CN2CCN(C(C)=O)CC2)nc2cc(S(=O)(=O)N(C)C)ccc21	6.7	nt	1.3	1.7	3.8	-1.1	6.2	-5.5	nt	i
COc1ccc(C)cc1S(=O)(=O)N(C)CC(=O)N1CCCC1	?	-3.8	0.2	16.9	8.2	0.9	0.9	-3.4	-4.5	i
CCOc1ccc(N(C(=O)c2snc(C(N)=O)c2N)C(C(=O)NCC2CCCO2)c2ccco2)cc1 (stereo not drawn)	-0.5	-6.8	7.7	-2.6	-3.1	5.3	-5.4	-1.6	34.4	i
CCNS(=O)(=O)c1cc(-c2nnc(OC)c3ccccc23)ccc1C	0.6	-6.4	-7.0	-25.6	-32.8	-11.0	5.0	-0.5	-5.1	i
CCN(CCCNC(=O)C1CCN(S(=O)(=O)c2cnc[nH]2)CC1)c1ccccc1	-4.6	-1.1	nt	nt	nt	nt	-7.1	-1.8	?	nt
Cc1ccc(SC(CC(=O)c2ccc(C)cc2)C(=O)O)cc1 (stereo not drawn)	-1.3	-10.8	nt	nt	nt	nt	-16.5	-1.3	99.1*	nt
CCOC(=O)C1CCCCN1C(=O)c1oc2c(Cl)cc(C)cc2c1C (stereo not drawn)	-4.9	nt	-7.3	-5.9	-11.0	-1.4	24.6	3.3	-1.2	i
COC(=O)c1cc(S(=O)(=O)N2CCC(C)CC2)ccc1F	?	-3.2	nt	nt	nt	nt	-20.5	-3.6	nt	nt
CCCC(C)NC(=O)Cn1c(=O)c2c(ncn2CCC(C)C)n(Cc2ccccc2)c1=O (stereo not drawn)	-2.1	2.9	-27.5	8.9	5.0	-0.3	24.1	-8.7	0.9	i
CCOC(=O)c1ccc(NC2c3ncccc3C(=O)N2Cc2ccc(F)cc2)cc1 (stereo not drawn)	nt	3.4	nt	nt	nt	nt	-10.0	-22.2	-4.5	nt
Cc1csc(C(=O)O)c1NC(=O)c1ccc(F)cc1	4.4	1.1	-20.2	5.8	5.4	0.9	-3.0	11.0	1.6	i
CCOC(=O)CCC(=O)Nc1ccc(S(=O)(=O)N2CCc3ccccc32)cc1	0.0	-7.1	4.9	-13.8	-13.2	1.9	-0.9	3.4	-4.5	i
O=C(O)COc1ccc2c(c1)OCCO2	-0.8	-2.3	nt	nt	nt	nt	-10.3	-7.3	0.1	nt
O=C(C(c1ccccc1)c1ccccc1)N1CC[C@@]2(O)CCCC[C@H]2C1	2.5	-7.8	nt	-10.9	-4.2	5.4	6.3	2.9	5.5	i
CS(=O)(=O)N1CCc2cc(S(=O)(=O)Nc3ccc4c(c3)OCCO4)ccc21	0.3	33.4	-35.7	-2.5	-0.7	-4.1	-19.8	-12.9	-3.6	i
O=C(CSc1ccc2nnc(CCNC(=O)c3ccc(F)cc3)n2n1)NCC1CCCO1 (stereo not drawn)	-2.1	-6.8	-2.0	6.5	9.8	-0.1	7.8	-8.1	-5.7	i
COc1ccc(-n2c(CNC(=O)COc3ccc(Cl)cc3)n[nH]c2=S)cc1	-1.8	3.7	-9.3	4.5	0.3	-0.9	-8.3	5.4	88.1*	i
COCCn1nnnc1C(c1ccc(Cl)cc1)N1CCN(C(=O)c2ccco2)CC1 (stereo not drawn)	-0.4	-1.4	0.8	5.3	1.6	2.0	4.4	1.4	-1.5	i
CCOc1ccc(OCC)c(NC(=O)C2C3C=CC(O3)C2C(=O)NCc2ccco2)c1 (stereo not drawn)	6.1	-13.2	nt	nt	nt	nt	-10.2	8.1	-15.7	nt
Cc1ccc(F)c(NC(=O)c2cncn2-c2ccccc2)c1	0.7	nt	2.4	5.3	9.2	-2.0	-0.2	0.3	14.3	nt
CCCN(CCC)c1nc(N(CCC)CCC)[nH]c(=O)n1	?	6.8	-2.3	3.9	-2.6	0.9	44.8	-0.2	-5.1	i
CCN(CC)S(=O)(=O)c1cccc(-c2n[nH]c(=S)n2C)c1	-1.2	-2.8	-4.4	5.4	2.7	-3.8	-14.8	-19.7	2.1	i
COC(=O)CCCC1=CC2=C(c3ccccc3)C(=O)C(C)(OC(=O)C3CCCC3)C(=O)C2=CN1CCCCO (stereo not drawn)	-5.8	2.0	-6.6	0.7	0.3	25.1	-8.1	-1.4	-67.0	i
Nc1ccn(CC(=O)NCc2ccccn2)c(=O)n1	nt	6.2	1.5	11.5	6.5	9.5	nt	nt	-1.1	i
Next results follow.
SMILES	RanGTP-Impb inh	Beta cell apopt	AF4-AF9 inh	rRNA inh HTS	rRNA inh HTS OD600	rRNA inh HTS RFP	T cruzi repl	Calb FLC	ALR inh	FGF22 binding
COc1ccc(CNC(=O)C2CCC(=O)N(CC3CCCCC3)C2)cc1 (stereo not drawn)	-0.3	-0.4	-1.5	2.8	5.9	0.4	-10.3	-20.7	1.0	i
CCN(c1ccccc1)S(=O)(=O)c1cccc(C(=O)NCC(c2cccs2)N(C)C)c1 (stereo not drawn)	5.0	-1.6	3.9	-23.6*	-10.4*	2.7*	10.7	4.4	-0.2	i
CCC(C)NC(=O)C(NS(=O)(=O)c1ccc2c(c1)c(=O)n(C)c(=O)n2C)c1ccccc1 (stereo not drawn)	nt	0.9	-3.4	15.0	15.9	1.0	nt	nt	2.3	i
Cc1c(NC(=O)CN2C(=O)NC3(CCCC3)C2=O)c(=O)n(-c2ccccc2)n1C	nt	-4.4	-2.9	6.1	-4.5	-2.4	nt	-5.6	-4.5	i
CC(C(=O)N1CCN(C)CC1)N1C(=O)c2ccccc2C1=O (stereo not drawn)	-3.1	0.8	nt	nt	nt	nt	-2.3	-15.2	-30.9	nt
CC(=O)Nc1ccccc1S(=O)(=O)CC1CC1(Cl)Cl (stereo not drawn)	-10.1	0.9	-8.6	7.3	8.4	3.2	-1.1	0.1	nt	i
Cc1[nH]c2ccccc2c1N=Nc1cccc(C(=O)O)c1	-1.9	1.7	-0.9	-7.5	-6.1	-4.2	-18.1	2.5	98.1*	i
